# H5N1 CPE – MDCK cell protection from H5N1 avian flu; cytopathic effect, luminescence, 72 h; active compounds read high; no value below 0 was filed and about half of the inactive calls have no number; reference of the scale not given here; inhibition, % at 50 µM; actives 0.07% (n = 96,000); AID 740; in the data active means inhibition above about 25%
# Numbers without * were called inactive; i = inactive.
no. | canonical_smiles | H5N1 CPE
1 | O=C(O)c1ccc(OCC(O)Cn2cnc3ccccc32)cc1 (stereo unspecified) | 1.3
2 | CCn1c(=O)cc(OCC(=O)Nc2ccc3c(c2)OCCO3)c2ccccc21 | 0.1
3 | Cc1ccc(NS(=O)(=O)c2cc(C(=O)NCc3ccccn3)ccc2Cl)cc1C | i
4 | CCC(C)c1ccccc1NC(=O)C1CCCO1 (stereo unspecified) | 1.6
5 | O=C(Nc1ccccc1)c1ccc(N2CCN(c3ccccc3)CC2)c(S(=O)(=O)N2CCOCC2)c1 | i
6 | COc1cccc(SCc2noc(C(=O)NC(C)C)c2C(=O)O)c1 | 1.0
7 | CCOC(=O)N1CCN(C(=O)CCCn2c(=O)[nH]c3ccccc3c2=O)CC1 | 0.6
8 | CCn1c(CC(=O)Nc2ccccc2)nnc1SCC(=O)Nc1ccccc1C(=O)OC | 1.4
9 | Cc1cc(N2CCCCCC2)nc(-c2ccccc2O)n1 | 1.8
10 | O=C(c1ccc(Cl)cc1Cl)N1CCC(c2nc3c(nnn3Cc3ccco3)c(=O)[nH]2)CC1 | 2.6
11 | O=C(CCn1nc(-c2ccccc2)ccc1=O)N1CCOCC1 | 0.8
12 | COc1ccc(CNC(=O)C2CC(C)=C(C)CC2C(=O)O)cc1 (stereo unspecified) | i
13 | O=C(COc1ccccc1)N1CCN=C1SCc1cccnc1 | 0.7
14 | COc1ccc(Cn2nc(C)cc2C)cc1OC | 0.3
15 | CCCC(=O)NC(C)c1nc2ccccc2[nH]1 (stereo unspecified) | 0.9
16 | CN1CCN(c2nc3c(c(=O)[nH]c(=O)n3C)n2CC(N)=O)CC1 | 0.6
17 | O=C(c1ccc(-n2cccc2)cc1)N1CCOCC1 | i
18 | COc1cc(NC(=O)c2cc(-c3ccco3)on2)c(OC)cc1Cl | i
19 | Cc1nc2ccc(S(=O)(=O)NC(C(=O)Nc3nccs3)C(C)C)cc2s1 (stereo unspecified) | 0.3
20 | COc1ccccc1N1CCN(C(=O)CCc2ccc(S(=O)(=O)NCC(C)C)cc2)CC1 | 0.5
21 | O=C(CSCCO)Nc1cc(C(F)(F)F)ccc1Cl | 0.1
22 | COc1cccc(C2CC(=O)Nc3c2c(=O)n(C)c(=O)n3C)c1OC (stereo unspecified) | i
23 | CCC(C)C(N)C(=O)NC(CCC(=O)OCc1ccccc1)C(N)=O (stereo unspecified) | 0.5
24 | Cc1ccc(NC(=O)CCC(=O)OCC(F)(F)C(F)F)cc1 | 0.6
25 | Cc1ccc(C(=O)NCC2CCCO2)o1 (stereo unspecified) | 0.2
26 | Cc1ccc(S(=O)(=O)N2CCN(C)CC2)c(C)c1N(C)S(=O)(=O)c1ccc(Cl)cc1 | i
27 | CC1(C)C(=O)OC(c2cccs2)C2(CCCCC2)C1=O (stereo unspecified) | 1.0
28 | CCOC(=O)C1C(c2cccc(Cl)c2Cl)NC(=O)NC1(O)C(F)(F)F (stereo unspecified) | i
29 | Cn1nnnc1SCc1ccc(F)cc1 | i
30 | CCc1nnc(NC(=O)CSc2nnc(-c3ccncc3)n2Cc2ccccc2)s1 | 1.5
31 | C=CCn1c(SCC(=O)Nc2ccc(NC(=O)c3ccco3)c(OC)c2)nnc1-c1ccncc1 | i
32 | O=C(COc1ccc(Cl)cc1)NCc1nnc(SCC(=O)NCc2ccc3c(c2)OCO3)o1 | 0.5
33 | Cc1cccc2cc(CN(CCc3ccccc3)C(=O)N3CCOCC3)c3nnnn3c12 | 2.7
34 | Cc1ccc(S(=O)(=O)NNC(=O)c2sccc2-n2cccc2)cc1 | 1.8
35 | COc1ccc(C(c2nnnn2C2CCCCC2)N2CCN(c3ccc(OC)cc3)CC2)cc1 (stereo unspecified) | 0.1
36 | CCn1c(=O)cc(SCC(=O)Nc2ccc3c(c2)OCO3)c2ccccc21 | 1.7
37 | O=C(C1CC(c2ccccc2O)=NO1)N1CCC2(CC1)OCCO2 (stereo unspecified) | 0.1
38 | Cc1cccc(CCNC(=O)CCc2nc(-c3ccccc3F)no2)c1 | i
39 | CSc1nnc(Cn2c(=O)sc3ccccc32)n1CCc1ccccc1 | 0.3
40 | O=C(CSc1nnc(-c2cccnc2)o1)Nc1ccccn1 | 0.3
41 | Cc1nnc(NC(=O)c2cccc(NC(=O)C(C)C)c2)s1 | i
42 | CCOC(=O)C1CCN(c2c(NCCCN(C)C3CCCCC3)c(=O)c2=O)CC1 | i
43 | Cc1noc(NS(=O)(=O)c2ccc(NC(=O)Nc3ccc(Cl)c(Cl)c3)cc2)c1C | i
44 | COc1cccc(-c2noc(N)c2C#N)c1 | i
45 | Cc1ccc(NC(=S)N2CCN(C3CCCCC3)CC2)cc1 | i
46 | COc1ccc(CC(=O)NC(C)c2nnc(SCC(=O)c3ccc(Br)cc3)n2C)cc1 (stereo unspecified) | i
47 | Cc1csc(NC(=O)c2cnccn2)n1 | 0.5
48 | N#Cc1c(SCC(=O)O)nc(-c2ccccc2)c2c1CCCC2 | 0.6
49 | COc1cccc(C2/C(=C(/O)c3cnn(-c4ccccc4)c3C)C(=O)C(=O)N2CCN(C)C)c1OC (stereo unspecified) | 0.4
50 | COc1ccc(-c2nc(-c3ccncc3)no2)cc1OC | i

# The results go on:
no. | canonical_smiles | H5N1 CPE
51 | COc1ccccc1CNC(=O)Cn1cnc2ccccc2c1=O | i
52 | CCOc1ccc(CN2CCNC(=O)C2CC(=O)OC)cc1 (stereo unspecified) | 1.1
53 | CC(c1ccccc1)n1cc(C(=O)NCC2COc3ccccc3O2)nn1 (stereo unspecified) | 0.2
54 | Cc1cccc(N2CCN(C(=O)c3ccc(N4CCCC4=O)cc3)CC2C)c1 (stereo unspecified) | 2.0
55 | O=C(CSc1nc(O)c(Cc2ccccc2)c(=O)[nH]1)Nc1ccccc1 | i
56 | CCCN1C(=O)CN(C2CCCCCC2)C(=O)C1c1ccc(C)cc1 (stereo unspecified) | i
57 | COC(=O)c1ccccc1NC(=S)NC(=O)c1ccccc1C | i
58 | CCN(c1ccccc1)S(=O)(=O)c1ccc(NC(=S)NC(=O)c2ccc(Br)o2)cc1 | 0.3
59 | CC1(C)CNC(=O)c2sc(N3CCOCC3)nc2C1 | 2.8
60 | COC(=O)C1=C(C(=O)OC)SC(=C2C(=S)C(C)(C)N(C(=O)C(C)C)c3ccccc32)S1 | 5.7
61 | Cc1ccc(NC(=O)C(Cc2ccccc2)N2C(=O)C3C4CCC(C4)C3C2=O)cc1Cl (stereo unspecified) | 3.0
62 | CC(=O)Nc1ccc(S(=O)(=O)N2CCN(c3cc4c(cc3[N+](=O)[O-])n(C)c(=O)n4C)CC2)cc1 | 2.5
63 | O/N=C1\CC/C(=N\O)c2nn(-c3ccc(Cl)cc3Cl)nc21 | 2.0
64 | CCOC(=O)CN1NC2(CCC(C(C)(C)C)CC2)NC1=S (stereo unspecified) | 0.7
65 | CCN1CCN(c2ncnc3sc(C(=O)Nc4ccccc4F)c(C)c23)CC1 | i
66 | COC(=O)c1ccccc1NC(=O)COC(C)=O | i
67 | Cc1ccc(S(=O)(=O)N2CCSC2c2ccco2)cc1 (stereo unspecified) | 1.1
68 | COC(=O)c1ccc(C(=O)OC)c(NC(=O)N2c3ccccc3Sc3ccccc32)c1 | 0.6
69 | COc1ccccc1C1C=C(c2ccc(C)cc2)Nc2nnnn21 (stereo unspecified) | 0.3
70 | c1ccc(-n2ncc3c(NCCN4CCOCC4)ncnc32)cc1 | i
71 | Cc1occc1C(=O)NNC(=S)Nc1cccc([N+](=O)[O-])c1 | 0.6
72 | N/C(=N/O)c1nc(N2CCCCC2)nc(N2CCCCC2)n1 | i
73 | O=C(N1CCOCC1)N1CCN(Cc2ccccc2)CC1 | i
74 | Cc1nc(N2CCN(Cc3nc4ccccc4[nH]3)CC2)c2oc3ccccc3c2n1 | 0.7
75 | Cc1cc(OC(=O)c2ccco2)c2c3c(c(=O)oc2c1)CCCC3 | 0.4
76 | CCCNC(=O)c1ccccc1NC(=O)Nc1ccccc1C | 0.4
77 | CCC(CC)c1nnc(NC(=O)CCCN2C(=O)c3ccccc3C2=O)s1 | i
78 | CCCc1ccc(OCc2ccc(C(=O)OC)o2)c(OC)c1 | 0.0
79 | COc1ccc2[nH]c(=O)c(CN(C(=O)c3ccco3)C3CCCCC3)cc2c1 | i
80 | COCCCNC(=O)Nc1ccc2c(c1)N(C)C(=O)CS2 | i
81 | O=C(c1ccc(Cl)cc1)c1cc(-c2ccccn2)c(N2CCOCC2)s1 | i
82 | CCOC(=O)C(C)n1nc(C)c2sc3ccccc3c2c1=O (stereo unspecified) | i
83 | COc1ccccc1Nc1ncnc2c1oc1ccccc12 | 0.1
84 | O=C(Nc1ccc(N2CCN(C(=O)c3ccco3)CC2)cc1)c1cccc(F)c1 | i
85 | CC1CC(C)CN(C(=O)CSc2nnc(-c3ccc(Cl)cc3)o2)C1 (stereo unspecified) | 1.6
86 | CCN(C(=O)c1ccnc(C(C)(C)C)c1)c1ccccc1 | 1.9
87 | CC(=NCCCN1CCOCC1)c1c(O)n(-c2ccccc2C)c(=O)[nH]c1=O | 0.5
88 | Cc1ccc(C)c(N2CCN(S(=O)(=O)c3ccc4c(c3)OCCO4)CC2)c1 | 1.5
89 | CC(=O)Nc1ccc(-c2nnc(SCC(=O)NCc3ccco3)n2C)cc1 | 0.9
90 | CC(C)NC(=O)c1cc(-c2ccco2)on1 | i
91 | COC(=O)C(C(=O)Nc1ccccc1C)C1CCCC1 (stereo unspecified) | i
92 | O=C(NC1CCCCCC1)c1nc2ncccn2n1 | i
93 | CC1=C(C(=O)Nc2ccccc2)C(c2ccc3c(c2)OCO3)C2=C(CCCC2=O)N1 (stereo unspecified) | 1.2
94 | CCOC(=O)CN(C(=O)CSc1nnc(CNc2ccc(C)cc2C)o1)c1ccccc1 | i
95 | CCN(CC)S(=O)(=O)c1ccc(C(=O)Oc2ccc3c(c2)OCO3)cc1 | 0.8
96 | O=C1c2ccccc2NC(c2ccc(O)cc2)N1Cc1ccco1 (stereo unspecified) | i
97 | O=C(Cn1c(C(F)(F)F)nc2ccccc21)c1ccc(Cl)cc1 | i
98 | O=C(c1sc2ccccc2c1Cl)N(Cc1ccccc1)C1CCS(=O)(=O)C1 (stereo unspecified) | 1.7
99 | CC(C)Cc1nnc(NS(=O)(=O)Cc2ccccc2)s1 | 1.9
100 | O=C(CSc1nnc2scc(-c3ccc(Cl)cc3)n12)NCc1ccco1 | 2.4

# More records.
no. | canonical_smiles | H5N1 CPE
101 | O=C(Nc1cc(C(F)(F)F)ccc1N1CCOCC1)c1c(F)c(F)c(F)c(F)c1F | i
102 | COc1c2ccc(C(=O)NCCCCc3ccccc3)cc2nn1C | 0.5
103 | CN(C)Cc1nc2c(c(=O)[nH]1)C(C)(C)Cc1ccccc1-2 | i
104 | CC1(C)CC(=O)CC(=Nc2ccc3[nH]c(=O)[nH]c3c2)C1 | i
105 | CC(C)(C)SCCNC(=O)CN(c1ccc(F)c(Cl)c1)S(C)(=O)=O | i
106 | O=C(NCC1CCCO1)c1onc(CSc2ccccc2)c1C(=O)O (stereo unspecified) | i
107 | Cc1nnc(SCC(=O)NCc2ccccc2)[nH]c1=O | 0.3
108 | O=C(CCn1cccc1)Nc1cccc(F)c1 | i
109 | O=C(c1ccccn1)N(Cc1cc2ccccc2[nH]c1=O)C1CCCCC1 | i
110 | CN1CCN(CC(O)COc2ccc(Cl)cc2)CC1 (stereo unspecified) | 1.0
111 | O=C(Nc1ccccc1)C1CC2CCCC(C1)C2=O (stereo unspecified) | i
112 | CC1Cc2nc(SCC(=O)NCCc3ccccc3)n(C)c(=O)c2S1 (stereo unspecified) | 1.5
113 | COC(=O)c1ccccc1NC(=O)COC(=O)c1ccco1 | 2.5
114 | O=C1C(NS(=O)(=O)c2cccs2)=C(N2CCN(c3cccc(Cl)c3)CC2)C(=O)c2ccccc21 | 7.8
115 | CCC12CN(S(=O)(=O)c3ccc(C)cc3)CC(CC)(CN(S(=O)(=O)c3ccc(C)cc3)C1)C2=O | i
116 | CC(=O)Nc1ccc(S(=O)(=O)N2CCN(C3CCCCCCC3)CC2)cc1 | 2.2
117 | COc1ccc(C2=Nc3cc(C)ccc3OC2)cc1 | i
118 | Cc1ccc(/C=N/NC(=O)CSc2nc3nc(C)cc(C)n3n2)cc1 | 1.0
119 | CCN(CC)C(=O)CSc1ncnc2c1cnn2Cc1ccccc1 | 0.4
120 | Clc1cccc(CN2CCC(Cc3ccccc3)CC2)c1 | 0.6
121 | O=C(N/N=C/c1c[nH]c2ccc(Br)cc12)c1ccn(Cc2ccc(Cl)cc2)n1 | 2.3
122 | Cc1cccc(-c2nc(CS(=O)CC(=O)NC3CCCC3)c(C)o2)c1 (stereo unspecified) | 0.4
123 | O=C(CN(Cc1ccccc1F)C(=O)Cn1nnc(-c2cccs2)n1)NCC1CCCO1 (stereo unspecified) | 2.1
124 | COc1cccc(C(=O)Nc2cccc(SC)c2)c1 | 1.5
125 | Cc1ccc(S(=O)(=O)NNC(=O)C2Cc3c(ccc4ccccc34)O2)cc1 (stereo unspecified) | 2.3
126 | CC(C)C(c1nnnn1C1CCCCC1)N1CCN(c2ncccn2)CC1 (stereo unspecified) | i
127 | Cc1ccc(-c2nnn(CC(=O)Nc3ccccc3-c3ccccc3)n2)c(-n2cnnn2)c1 | 0.3
128 | O=C(Nc1ccccn1)c1ccc2ccccc2n1 | i
129 | O=C(COc1ccc([N+](=O)[O-])cc1)NN=C1CCCC1 | 2.4
130 | O=C(Cn1cnc2c(cnn2-c2ccccc2)c1=O)NCCc1ccccc1 | i
131 | CS(=O)(=O)N(CC(=O)Nc1cc(Cl)ccc1Cl)c1ccccc1Cl | 1.5
132 | O=c1cc(-c2ccccc2)nc(N2CCCCC2)[nH]1 | i
133 | CC(=O)N(CCN(C(C)=O)c1ccccc1)c1ccccc1 | 1.9

# High-throughput results from PubChem BioAssay.

# This is a subset; the hit share may differ from the screen's.
